Ecoli growth – inhibitors of Escherichia coli growth; OD600, 23 h; hits give low values; OD600 absorbance (concentration not given with the values); 330,000 compounds, 0.21% hits;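 active = OD600 absorbance below the run mean of sample wells minus 3.6 SD, in any replicate, cut at about 0.56 in these data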;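 note: stock transfer was 300 nL into about 60 µL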
ALR H2O2 inh – blocks human ALR sulfhydryl oxidase activity | P55789 | purified ALR, DTT oxidation, H2O2 HRP-luminol luminescence | inhibition, % (concentration not given with the values) | 290,000 compounds, 3.8% hits;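 active = mean and each replicate at 75% or more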;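 note: stock transfer was 7.5 nL into about 7.5 µL; 0% = neutral wells and 100% = wells with inactivated enzyme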
Target sequence (P55789 whole entry, looked up): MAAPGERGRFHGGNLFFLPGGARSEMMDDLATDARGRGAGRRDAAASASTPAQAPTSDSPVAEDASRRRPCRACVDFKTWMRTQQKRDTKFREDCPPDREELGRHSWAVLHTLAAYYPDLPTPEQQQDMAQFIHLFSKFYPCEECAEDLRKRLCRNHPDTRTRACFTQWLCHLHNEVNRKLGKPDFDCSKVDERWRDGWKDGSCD
Beta2AR agonist – human beta-2 adrenergic receptor agonism by FAP; P07550; 340,000 compounds, 0.43% hits; response, % (test concentration not listed); Am2.2-beta2AR cells, FAP receptor internalization, flow cytometry; reference of the scale not given here;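 active = response above a set limit, near 3 SD of response in nonfluorescent compounds, cut at about 42% in these data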;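 note: stock transfer was 100 nL into about 11 µL; a reference agonist was the positive control; negative values mostly stem from fluorescent compounds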
Target sequence (P07550 whole entry, looked up): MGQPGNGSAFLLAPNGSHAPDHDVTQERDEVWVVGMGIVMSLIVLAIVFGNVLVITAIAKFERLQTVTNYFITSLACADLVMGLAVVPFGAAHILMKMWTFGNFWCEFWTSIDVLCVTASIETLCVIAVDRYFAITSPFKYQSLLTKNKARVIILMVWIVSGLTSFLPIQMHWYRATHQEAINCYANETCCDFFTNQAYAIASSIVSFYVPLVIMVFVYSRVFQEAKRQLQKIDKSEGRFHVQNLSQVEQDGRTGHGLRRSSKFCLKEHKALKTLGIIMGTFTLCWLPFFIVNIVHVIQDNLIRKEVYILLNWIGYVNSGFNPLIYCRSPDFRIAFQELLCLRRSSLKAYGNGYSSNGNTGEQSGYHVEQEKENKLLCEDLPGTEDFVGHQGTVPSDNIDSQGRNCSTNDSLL
HNF4A DNA FP – change in binding of human HNF4 alpha to DNA; HNF4a-FITC DNA binding, fluorescence polarization, 1 h; activity change, % at 10 µM; 360,000 compounds, 0.3% hits; in the data active = activity change above about 30%, passing the limit was not always enough;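 note: controls were the assay level and a saturating level of protein; the project sought stronger binding though the title names inhibitors; some compounds called inactive have numbers as strong as hits; positive values seem to mean higher polarization but the record does not say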
Ecoli rRNA inh – inhibitors of bacterial rRNA selective over humanized ribosomes | E. coli WT GFP vs humanized-ribosome RFP mutants, fluorescence, 24 h; hits give low values; DMSO median 0, no signal -100 | GFP signal change (wild-type ribosome), % (test concentration not listed) | 350,000 compounds, 1.6% hits | AID 720706;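 active = significant combined selectivity score with lowered wild-type GFP, culture density cut under 30%, mutant RFP and density less affected; inactive = any of these conditions unmet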; note: one replicate is shown; some compounds called inactive have numbers as strong as hits
UCH37 inh – inhibitors of human deubiquitinating enzyme UCH37; 330,000 compounds, 0.33% hits; purified proteasome/UCH37, Ub-AMC cleavage fluorescence; inhibition, % (test concentration not listed);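 active = mean of two replicates above 20%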;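 note: 0% = compound-free wells with enzyme and 100% = wells lacking proteasome; stock transfer was 100 nL into about 20 µL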
Target sequence (Q9Y5K5 whole entry, looked up): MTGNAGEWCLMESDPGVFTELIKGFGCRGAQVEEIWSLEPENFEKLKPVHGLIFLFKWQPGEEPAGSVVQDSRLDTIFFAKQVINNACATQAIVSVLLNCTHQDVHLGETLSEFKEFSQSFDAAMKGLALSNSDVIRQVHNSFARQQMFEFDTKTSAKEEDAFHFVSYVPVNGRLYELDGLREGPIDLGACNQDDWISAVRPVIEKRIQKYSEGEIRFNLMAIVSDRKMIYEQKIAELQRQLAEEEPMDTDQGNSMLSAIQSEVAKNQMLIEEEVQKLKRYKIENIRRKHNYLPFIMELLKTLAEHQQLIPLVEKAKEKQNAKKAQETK
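Assay system: Proteasome-bound UCH37. Buffer or medium: pH 7.4 Tris-HCl (50 mM) with ovalbumin, ATP-MgCl2, DTT. Incubation: 30 min preincubation with enzyme, 25 min cleavage at room temperature. Measured by: fluorescence, ex 355 nm, em 460 nm. Read-out basis: percent inhibition. Control set: wells without proteasome as full block, compound-free enzyme plus substrate as uninhibited.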
FGF22 binding – FGF22 (human) thermal shift binding; calls only at 9.99 µM; Q9HCT0; recombinant FGF22 thermal shift, SYPRO orange fluorescence; percent of sucrose octasulfate shift, DMSO zero; 340,000 compounds, 1.5% hits; AID 651658;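 active = melting point raised past a set limit in the mean and every replicate; three in four hits are not shown here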
Ecoli rRNA inh OD600 – also measured in Ecoli rRNA inh; calls as there; OD600 change, %; measured here: OD600 growth;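 optical density of the mix in the first replicate; 0 = DMSO median and -100 = no signal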
Ecoli rRNA inh RFP – recorded beside Ecoli rRNA inh, whose call it bears; RFP signal change, %; measured here: RFP humanized mutant strains;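 first replicate; 0 = DMSO median and -100 = no signal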
Active calls of the source: *; i = inactive; . = no result given. A portion of the library; rates above refer to the full screens.

[1] CCc1cccc(OCC(=O)Nc2ccc(S(=O)(=O)Nc3ccccn3)cc2)c1
[2] COc1ccc(CNCc2ccc3c(c2)OCO3)cc1Br
[3] O=C(Nc1ccc([N+](=O)[O-])cc1)C(Cc1ccccc1)N1C(=O)c2cccc3cccc(c23)C1=O (stereo not drawn)
[4] C=CCn1c(=O)[nH]c2cc(C(=O)N3CCN(c4cccc(Cl)c4)CC3)ccc2c1=O
[5] Cc1ccccc1Oc1nc(-c2ccccn2)nc2ccccc12
[6] CC(Sc1nc(N)cc(=O)[nH]1)C(=O)NC1CCCCC1 (stereo not drawn)
[7] COc1cc(C(=O)NC(C)c2cnn(-c3ccccc3C)c2C)cc(OC)c1OC (stereo not drawn)
[8] CC(=O)N1CCOc2ccc(S(=O)(=O)NC[C@H]3O[C@@H](n4ccc(N)nc4=O)[C@H](O)[C@@H]3O)cc21
Compound	1	2	3	4	5	6	7	8
Ecoli growth	0.701	0.657	0.709	0.674	0.67	0.77	0.704	.
ALR H2O2 inh	-13.3	-34.9	-1.3	.	1.6	.	.	.
Beta2AR agonist	22.6	-10.5	5.5	4.6	-16.6	-6.9	2.3	.
HNF4A DNA FP	-2.3	-4.6	54.3*	-1.2	-0.2	1.6	-0.5	-1.4
Ecoli rRNA inh	-10.0	10.4	16.0	.	-29.6	.	14.7	1.2
Ecoli rRNA inh OD600	-13.9	0.8	2.5	.	-59.2	.	9.1	6.2
Ecoli rRNA inh RFP	-5.5	-1.1	6.4	.	-8.6	.	1.6	-2.6
UCH37 inh	-4.4	-1.3	3.9	2.9	3.6	2.8	-1.2	.
FGF22 binding	i	i	i	.	i	.	i	i

[9] COc1ccccc1-c1cc(C(=O)NCCCn2ccnc2)no1
[10] COC(=O)[C@]12CCCCC=C1N(Cc1ccco1)C(=O)[C@H](CC(=O)N1CCC(c3ccccc3)CC1)C2
[11] Cc1ccccc1OCCOc1ccc([N+](=O)[O-])cc1/C=N/n1cnnc1
[12] Cc1ccc(NC(=O)Cc2ccc3c(c2)OCCO3)cc1S(=O)(=O)N1CCCCC1
[13] CCOC(=O)CSc1nc(C(C)(C)C)nc2ccccc12
[14] C=COCCNC(=O)Nc1ccc(Cl)c(Cl)c1
[15] CCCn1cnc2c(Sc3c([N+](=O)[O-])ncn3C)nc(N)nc21
[16] CSc1ccc(/C=N/NC(=O)c2ccc(C)c(C)c2)cc1
Compound	9	10	11	12	13	14	15	16
Ecoli growth	0.637	.	.	0.755	0.682	0.654	0.677	.
ALR H2O2 inh	1.2	.	-8.9	-6.2	-3.8	-0.6	.	4.9
Beta2AR agonist	-1.9	.	-9.2	0.1	1.6	-0.2	13.2	2.5
HNF4A DNA FP	-3.6	-8.8	0.8	0.2	2.4	2.0	4.3	-1.1
Ecoli rRNA inh	.	-21.4	12.3	-20.9	-38.0	-20.8*	6.8	.
Ecoli rRNA inh OD600	.	-23.5	10.2	-17.4	-56.1	-13.6*	3.5	.
Ecoli rRNA inh RFP	.	2.7	-1.1	-5.8	-2.2	-1.3*	-0.2	.
UCH37 inh	-3.7	.	.	1.6	5.4	2.4	6.9	.
FGF22 binding	.	i	i	i	.	i	i	.

[17] Clc1ccc(CSc2snnc2-c2ccccc2)cc1
[18] O=C(CNC(=O)c1ccccc1Cl)OCC(=O)N1CCc2ccccc21
[19] O=C(CCCn1c(=O)c2ccccc2n(Cc2cccc(F)c2)c1=O)NC1CCN(Cc2ccccc2)CC1
[20] COc1ccc(S(=O)(=O)N(CC(=O)NC2CC2)c2ccc(C)cc2)cc1
[21] COc1ccc(F)cc1S(=O)(=O)N1CCc2ccccc2C1
[22] COc1cccc(CNC(=O)COC(=O)/C=C/c2ccc(SC)cc2)c1
[23] CCOc1ccc(CNC(=O)CN2C(=O)CSc3ccc(S(=O)(=O)N4CCOCC4)cc32)cc1
[24] CCOc1ccc(N(C(C)C(=O)Nc2ccc(OC)cc2)S(C)(=O)=O)cc1 (stereo not drawn)
Compound	17	18	19	20	21	22	23	24
Ecoli growth	0.703	0.708	0.697	0.651	.	0.702	.	0.71
ALR H2O2 inh	-7.7	0.1	-3.8	-0.4	.	-4.9	.	-6.9
Beta2AR agonist	9.0	-0.6	.	5.6	.	2.6	.	-3.8
HNF4A DNA FP	1.6	2.2	.	1.3	3.0	1.0	2.0	-0.2
Ecoli rRNA inh	.	2.5	-5.7	2.1	-21.1	-5.2	-3.0	.
Ecoli rRNA inh OD600	.	4.6	-5.7	-6.0	-28.6	-1.8	-2.8	.
Ecoli rRNA inh RFP	.	-1.5	14.4	1.4	-7.7	3.4	-2.3	.
UCH37 inh	1.6	3.3	2.7	0.6	.	-65.4	.	1.4
FGF22 binding	.	i	i	i	i	i	i	.

[25] CCCS(=O)(=O)N1CCN=C1SCc1ccc(C)cc1
[26] O=C(CSc1nnc(NC(=O)Cc2ccc(F)cc2)s1)NCc1ccco1
[27] Cc1cccc(C(=O)NCCN2CCOCC2)c1[N+](=O)[O-]
[28] C=CCSc1nsc(N)n1
[29] Cc1ccccc1NC(=S)NNC(=O)c1cccnc1
[30] CCNC(=O)C(C)NC(=O)C1=NN(c2ccccc2)C(=O)CC1 (stereo not drawn)
[31] CCc1nc2c(c(=O)[nH]1)C1(CCCC1)Cc1ccccc1-2
[32] CC1CCN(S(=O)(=O)c2ccc(C(=O)Nc3nnc(C4CC4)o3)cc2)CC1
Compound	25	26	27	28	29	30	31	32
Ecoli growth	0.665	0.739	0.68	0.7	0.663	0.659	0.712	0.727
ALR H2O2 inh	-22.0	-5.5	.	2.2	9.1	-3.4	-6.5	-4.3
Beta2AR agonist	0.4	-5.7	-0.3	-1.6	-0.9	10.9	-8.5	1.3
HNF4A DNA FP	-0.2	4.6	1.6	-1.5	0.6	-1.8	1.2	1.3
Ecoli rRNA inh	5.3	20.6	.	.	.	12.5	.	-50.7
Ecoli rRNA inh OD600	3.6	-3.9	.	.	.	15.1	.	-78.0
Ecoli rRNA inh RFP	2.3	-0.2	.	.	.	-4.0	.	-14.9
UCH37 inh	4.3	3.6	0.7	0.6	-2.8	0.8	-3.5	0.3
FGF22 binding	i	i	.	.	.	i	.	i

[33] O=C1CCC(=O)N1OCCCOc1ccc(Br)cc1Cl
[34] CCCCOC1NC(=O)NC(=O)C1(F)C(=O)OCC (stereo not drawn)
[35] O=c1[nH]c(CSc2nc3ccccc3[nH]2)nc2c1cnn2-c1ccccc1
[36] C=CCn1c(SCC(=O)N(C)C2CCS(=O)(=O)C2)nnc1-c1ccncc1 (stereo not drawn)
[37] CCc1c(C)nc2ncnn2c1N1CCC(C(=O)Nc2cccc(C(C)=O)c2)CC1
[38] Cn1c(=O)c2c(SCc3cccc(C(F)(F)F)c3)nc(-c3ccco3)nc2n(C)c1=O
[39] Cc1ccc(CNC(=O)CN2c3cccc4cccc(c34)S2(=O)=O)cc1
[40] CC12CCC(=O)N1C(C(=O)Nc1nc3ccc(S(C)(=O)=O)cc3s1)CS2 (stereo not drawn)
Compound	33	34	35	36	37	38	39	40
Ecoli growth	0.644	.	0.68	0.752	0.718	0.718	0.646	0.699
ALR H2O2 inh	.	.	47.1	-17.7	-17.1	-2.8	.	-0.4
Beta2AR agonist	-3.7	.	-15.6	-5.6	8.6	-17.5	1.1	-8.9
HNF4A DNA FP	6.7	2.2	0.5	1.0	-2.1	1.1	1.2	3.4
Ecoli rRNA inh	.	18.1	-12.2	.	.	.	3.4	9.6
Ecoli rRNA inh OD600	.	27.8	-7.4	.	.	.	0.4	18.0
Ecoli rRNA inh RFP	.	-5.5	9.0	.	.	.	-2.4	3.2
UCH37 inh	.	.	-2.3	2.4	8.0	3.8	-33.4	0.2
FGF22 binding	.	i	i	.	.	.	i	i

4 entries out of the list, arranged by formula weight, high to low:
[38] Cn1c(=O)c2c(SCc3cccc(C(F)(F)F)c3)nc(-c3ccco3)nc2n(C)c1=O
[39] Cc1ccc(CNC(=O)CN2c3cccc4cccc(c34)S2(=O)=O)cc1
[33] O=C1CCC(=O)N1OCCCOc1ccc(Br)cc1Cl
[34] CCCCOC1NC(=O)NC(=O)C1(F)C(=O)OCC (stereo not drawn)
Compound	38	39	33	34
Ecoli growth	0.718	0.646	0.644	.
ALR H2O2 inh	-2.8	.	.	.
Beta2AR agonist	-17.5	1.1	-3.7	.
HNF4A DNA FP	1.1	1.2	6.7	2.2
Ecoli rRNA inh	.	3.4	.	18.1
Ecoli rRNA inh OD600	.	0.4	.	27.8
Ecoli rRNA inh RFP	.	-2.4	.	-5.5
UCH37 inh	3.8	-33.4	.	.
FGF22 binding	.	i	.	i

Further entries
[41] COc1ccc(CCn2c(-c3ccc(Cl)cc3)n[nH]c2=S)cc1OC
[42] COc1ccc(CC(=O)NCCc2cnc[nH]2)cc1
[43] O=C(Nc1ccccc1)Nc1nccs1
[44] Cc1cc(Nc2ccc(Br)c(C)c2)n2nc(C)nc2n1
[45] CCc1nc2ccc(C(=O)NCc3ccc4c(c3)OCO4)cn2c1N(C)CCC(C)C
[46] Cc1cc(N2CCCC2=O)cc(C)c1S(=O)(=O)Nc1c(C)nn(C)c1C
[47] CC(C)CCn1c(S(=O)(=O)O)nc2ccccc21
[48] COc1cc(/C=C2\CCc3ccccc3C2=O)cc(OC)c1OC
Compound	41	42	43	44	45	46	47	48
Ecoli growth	0.676	0.624	0.659	0.694	.	0.682	0.73	0.639
ALR H2O2 inh	47.8	.	8.2	-2.8	.	-28.1	-22.5	-12.7
Beta2AR agonist	15.4	6.9	-3.1	-9.8	.	-11.1	-2.2	-4.5
HNF4A DNA FP	-0.9	0.5	3.4	1.2	-0.6	-2.8	-2.8	2.9
Ecoli rRNA inh	-3.9	9.1	.	-10.1	7.0	15.2	.	.
Ecoli rRNA inh OD600	-7.8	0.2	.	-20.1	-20.6	3.3	.	.
Ecoli rRNA inh RFP	-0.4	-4.2	.	-6.4	27.4	1.9	.	.
UCH37 inh	-0.1	1.9	1.0	3.3	.	-1.2	-3.3	3.7
FGF22 binding	i	i	.	i	i	i	.	.

[49] Cc1nn(-c2ccc(F)cc2)c(C)c1CN1CCN(CCC(C)C)C(CCO)C1 (stereo not drawn)
[50] COC(=O)c1ccc(NC(=O)Cn2c([N+](=O)[O-])cnc2C)cc1
[51] COc1ccc([N+](=O)[O-])cc1NC(=O)C1C2C=CC(C2)C1C(=O)O (stereo not drawn)
[52] COc1ccccc1S(=O)(=O)NCc1ccc(C(=O)N(C)Cc2ccc(F)cc2)cc1
[53] CC(C)c1nc(N2CCOCC2)c(C#N)c2c1COC(C)(C)C2
[54] O=c1c2ccccc2oc2nc(-c3ccco3)n(-c3ccccc3)c(=O)c12
[55] Cc1ccc(C(=O)Nc2ccc(Oc3ccc(C(=O)O)c(C(=O)O)c3)cc2)cc1C
[56] O=C(c1ccsc1)N1CCCC(Nc2cccc(F)c2)C1 (stereo not drawn)
[57] O=C(NCc1ccco1)C1CCCN1C(=O)Nc1ccccc1Cl (stereo not drawn)
[58] COc1cccc(/C=C/C(=O)OCC(=O)Nc2ccc3c(c2)OCCO3)c1
Compound	49	50	51	52	53	54	55	56	57	58
Ecoli growth	0.672	.	.	0.679	0.741	0.717	0.728	0.741	0.701	.
ALR H2O2 inh	5.9	-2.8	-14.4	-4.3	-10.0	-16.2	98.2*	53.1	3.0	.
Beta2AR agonist	-4.0	-4.6	-19.5	-0.8	0.0	5.0	-2.6	-0.8	5.5	.
HNF4A DNA FP	-2.2	-0.5	1.4	3.8	-0.3	3.1	2.8	3.4	1.8	-0.1
Ecoli rRNA inh	7.4	8.0	12.0	.	.	-11.2	.	-12.2	15.2	5.4
Ecoli rRNA inh OD600	5.2	8.3	8.0	.	.	-1.8	.	-14.7	7.1	4.7
Ecoli rRNA inh RFP	1.1	12.6	-3.0	.	.	3.8	.	-3.0	2.7	0.4
UCH37 inh	2.1	.	.	0.5	-76.5	7.3	5.3	2.0	-2.2	.
FGF22 binding	i	i	i	i	.	i	.	i	i	i

Source: PubChem BioAssay (several laboratories)
